Bioassay records as filed in PubChem BioAssay.
Mtb H37Rv: Mycobacterium tuberculosis H37Rv growth inhibition, cell based, confirmatory dose response (AID 1949); most inactive calls were filed without a number and no value below 0 was filed; one-dose inhibition, % at 10 µg/mL; IC50 in µg/mL for titrated hits; 1.6% of 100,000 active;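 active = confirmed in a dose series; inconclusive = about 50% or more but not retested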;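 also: bacteria grown 7 days with compound before Alamar blue readout; 0% = untreated bacteria and 100% = reference antibiotic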
Starred values were filed as active, the others as inactive; i = inactive; ? = inconclusive. The list is partial. The share of hits here may be higher or lower than overall.

item	structure	Mtb H37Rv
1	Fc1ccccc1Cn1c(-c2cncs2)nc2ccccc21	i
2	O=C1NC(=O)C(CCc2ccncc2)(Cc2ccc3c(c2)OCO3)C(=O)N1CCc1ccccc1 (stereo not given)	i
3	c1ccc(Nc2nc3ccccc3n2CCOc2ccccc2)cc1	i
4	Cc1cc(C)nc(/N=C(/NC(=O)C(Cc2ccccc2)N2C(=O)C3CCCCC3C2=O)Nc2cccc(Cl)c2)n1 (stereo not given)	10%
5	Cc1cc(C(C)(C)C)ccc1OCCN(C)C	i
6	Cn1nc(-c2ccc(C(=O)Nc3cccc(Cl)c3)cc2)c2ccccc2c1=O	i
7	CCN(c1ccccc1)S(=O)(=O)c1ccc(NC(=O)COc2ccccc2C)cc1	i
8	Cc1cccc(C(=S)N2CCN(c3ccccc3F)CC2)c1	i
9	Cn1c(Sc2ccc([N+](=O)[O-])c3cccnc23)nnc1-c1ccccc1	0.8µg/mL*
10	Cc1ccc(OCc2nc3ccccc3s2)cc1C	7%
11	COc1cccc(-c2noc(CSc3ccc(C)cc3)n2)c1	4%
12	COC(=O)c1ccccc1NC(=O)Nc1ncn(Cc2cccc(C(F)(F)F)c2)n1	i
13	CCc1cccc(CC)c1NC(=O)c1cccc(OC)c1	i
14	CS(=O)(=O)N(CC(=O)Nc1cc(C(F)(F)F)ccc1Cl)c1cccc(F)c1	i
15	Cc1onc(-c2ccccc2Cl)c1C(=O)NCc1ccc(F)cc1	i
16	COc1ccc(-c2cc(C(=O)N/N=C/c3ccco3)[nH]n2)cc1	i
17	C=CCOc1cc(Br)c(C(=O)O)cc1OCC	i
18	Cc1ccc(S(=O)(=O)N2CCC(C(=O)Nc3ccccc3[N+](=O)[O-])CC2)cc1	i
19	CC(C(=O)Oc1ccc([N+](=O)[O-])cc1)N1C(=O)c2ccccc2C1=O (stereo not given)	10%
20	COc1ccc(CN(C(=O)c2oc3ccccc3c2C)C2CCS(=O)(=O)C2)cc1OC (stereo not given)	i
21	O=C1C2CC=C(Cl)CC2C(=O)N1c1ccn[nH]1 (stereo not given)	i
22	C=Cc1cccc(NC(=O)c2ccc3c(c2)C(=O)N(Cc2ccco2)C3=O)c1	i
23	O=C(c1cccc(NC(=O)C(F)(F)F)c1)c1cccc(NC(=O)C(F)(F)F)c1	i
24	COc1ccc(CNC(=O)C(=O)NC2CCC(C)CC2)cc1 (stereo not given)	1%
25	Cc1cc(C)nc(SCC(=O)NC(C)(C)C)n1	2%
26	CCOc1cc(C(=S)N2CCN(c3ccc(F)cc3)CC2)ccc1OCC(=O)NCc1ccccc1	i
27	CCCC(=O)N(c1ccc2oc(C)c(C(=O)OC)c2c1)S(=O)(=O)c1ccc(F)cc1	1%
28	CNC(=S)N1N=C(c2ccc(Br)cc2)CC1c1ccc(N(C)C)cc1 (stereo not given)	1%
29	CCOc1ccccc1CNc1nc2nc(C)c(Cl)c(C)n2n1	0%
30	COC(=O)COc1ccc2c(=O)c(Oc3ccccc3)c(C)oc2c1	?
31	Cn1c(COc2ccccc2Cl)nnc1SCC(=O)Nc1cccc(C(=O)O)c1	i
32	O=C(C1=C(O)C(=O)N(CC2CCCO2)C1c1ccc(OCc2ccccc2)cc1)c1ccco1 (stereo not given)	1%
33	Cc1cc(C(F)(F)F)c2c(n1)sc1c(=O)[nH]c(=O)[nH]c12	i
34	O=C(CSc1nnc(-c2ccc([N+](=O)[O-])cc2)n1-c1ccccc1)Nc1ccccc1C(F)(F)F	i
35	COc1ccccc1NC(=O)Nc1c(C)n(C)n(-c2ccccc2)c1=O	i
36	COc1ccccc1CC(=O)Nc1ccc(O)cc1C(=O)O	3%
37	CC(=O)c1ccc(NC(=S)NC(=O)c2ccc(C)c(I)c2)cc1	0%
38	O=C(CNS(=O)(=O)c1ccc(Cl)cc1)OCc1ccccc1F	i
39	CC1(C)NC(=O)N(CCCOc2ccc(Cl)c3ccccc23)C1=O	2%
40	CCN(CC)Cc1cc(Br)ccc1OCc1ccc([N+](=O)[O-])cc1	i
41	C/C=C/c1ccc(OCCCN2C(=O)NC(C)(C)C2=O)c(OC)c1	i
42	COCCNC(=O)c1ccccc1NS(C)(=O)=O	i
43	COc1ccc(NC(=O)OC(C)(C)C)cc1Cl	i
44	CC(=O)Nc1cccc(OCc2ccc([N+](=O)[O-])cc2)c1	i
45	CC(C(=O)N1CCCC1)N(c1ccc(Cl)cc1)S(C)(=O)=O (stereo not given)	i
46	CCOC(=O)c1c(-c2ccccc2)csc1NC(=O)c1cccc(N2C(=O)CCC2=O)c1	9%
47	CCCCNCCCCOc1ccc(Cl)cc1	26%
48	COC(=O)c1ccc(Oc2coc3cc(OCC(=O)c4ccccc4)ccc3c2=O)cc1	i
49	O=C(Nc1ccc(S(=O)(=O)Nc2ccc(I)cc2)cc1)c1ccco1	i
50	COc1ccc(NC(=O)c2c(NC(=O)CNCCO)sc3c2CCC3)cc1	?
51	COC(=O)c1ccccc1NS(=O)(=O)c1ccc(OC)c(I)c1	i
52	CC1(C)CC(=O)CC(C)(C)N1OC(=O)c1ccc([N+](=O)[O-])cc1	i
53	COc1ccccc1-c1nc(SCc2cccc(Br)c2)n[nH]1	23%
54	CCOc1cc(CNCCCO)ccc1OC1CCCC1	i
55	COc1ccccc1/C=N/N=C1/NC(=O)C(Cc2ccc(Br)cc2)S1 (stereo not given)	1%
56	O=C(c1ccc2c(c1)OCO2)N1CCN(CCN2C(=O)c3cccc4cccc(c34)C2=O)CC1	i
57	CCN(CC)c1ccc(NC(=O)c2cccc(F)c2)c(C)c1	i
58	O=C(CSc1nc2ccccc2o1)Nc1ccc(Br)cc1Cl	i
59	CCCCc1ccc(-n2nc3ccc(NC(=S)NC(=O)c4ccccc4[N+](=O)[O-])cc3n2)cc1	i
60	CN=C(c1ccc([N+](=O)[O-])cc1)N(C)C	0%

Additional compounds follow.
item	structure	Mtb H37Rv
61	CCCCC(CC)n1[nH]c(=O)c2c(C)cc(=O)[nH]c21 (stereo not given)	1%
62	Cc1cc(C)cc(OCC(=O)Nc2cccc(NC(=O)C(C)C)c2)c1	i
63	Cc1ccc(-c2nnc(Nc3ccc(O)cc3)c3ccccc23)cc1S(=O)(=O)NCc1cccnc1	i
64	CC(C)(C)NC(=O)CNS(=O)(=O)c1ccccc1	i
65	CCC(NC(=O)c1ccc(Br)s1)c1ccccc1 (stereo not given)	i
66	CCC(=O)NC(=S)Nc1ccc(NC(=S)NC(=O)c2cccc(Br)c2)cc1	11%
67	CCOc1ccc2[nH]c(C)c(C/C=C(/C)Cl)c(=O)c2c1	1%
68	CSCCC(NC(=O)c1ccccc1)C(=O)Nc1ccc2c(c1)OCCO2 (stereo not given)	i
69	O=C(CC1C(=O)N(Cc2ccccc2)C(=S)N1CCN1CCOCC1)Nc1ccc(F)cc1 (stereo not given)	i
70	NC(=O)CSc1nnc(-c2ccc(Br)cc2)n1Cc1ccccc1	i
71	CC(=O)Nc1ccc2nc(NC(=O)c3ccc(-c4cccc([N+](=O)[O-])c4)o3)sc2c1	i
72	O=c1c2c(n3c(=S)[nH]nc3n1Cc1ccco1)-c1ccccc1CC21CCCCC1	3%
73	Cc1ccc(-c2nnc3c4ccccc4c(C)nn23)cc1S(=O)(=O)NCC1CCCO1 (stereo not given)	5%
74	Cn1c(SCc2ccccc2)nc2ccc(I)cc2c1=O	i
75	Cc1cccnc1Nc1nc(-c2ccc(O)c(O)c2)cs1	7%
76	COC(=O)c1cc(NC(=O)c2ccccc2N(Cc2ccccc2)S(C)(=O)=O)ccc1Cl	i
77	COc1ccccc1C(=O)NC(=S)Nc1cc2nn(-c3ccc(C)cc3)nc2cc1Cl	i
78	COc1ccccc1Cn1c(C(C)O)nc2ccccc21 (stereo not given)	i
79	COC(=O)c1cc(OC)c(OC)cc1NC(=O)CSc1ccccc1	i
80	Cc1ccc(NC(=O)c2ccc(-c3ccccc3)cc2)nc1	39%
81	CC1=C(C(=O)OCCc2ccccc2)C(c2ccc(C(F)(F)F)cc2)C2=C(CCCC2=O)N1 (stereo not given)	0%
82	CCOC(=O)N1CCN(S(=O)(=O)c2ccc(OCC)cc2)CC1	i
83	O=C(NC(=S)Nc1cc(-c2nc3ccccc3o2)ccc1Cl)c1cccc2ccccc12	i
84	CCCCOc1cccc(C(=O)Nc2ccc(Br)cc2F)c1	i
85	Cc1ccccc1CN(c1ccc(C(=O)NCCSC2CCCCC2)cc1)S(C)(=O)=O	i
86	COc1cc(NC(=O)c2cccc(F)c2)ccc1NC(=O)c1ccco1	i
87	COc1ccc(N2CCN(S(=O)(=O)c3cccs3)CC2)cc1	i
88	CCOC(=O)c1cccc(NC(=O)CSc2nnc(CNC(=O)Cc3ccc(OC)cc3)n2C)c1	i
89	N=c1n(CCO)c2ccccc2n1Cc1ccc(Cl)c(Cl)c1	i
90	CCc1c(C)sc(NC(=O)c2ccc([N+](=O)[O-])c(C)c2)c1C(=O)OC(C)C	i
91	CCOc1ccc(C2C(C(=O)c3sc(C)nc3C)=C(O)C(=O)N2CCCN(C)C)cc1OC (stereo not given)	i
92	CC(=O)Nc1cccc(Oc2ccc3c(c2)C(=O)NC3=O)c1	i
93	COc1cc(Cl)c(S(=O)(=O)NCc2cccs2)cc1Cl	3%
94	CSc1ccc(S(=O)(=O)Nc2ccccc2F)cc1	i
95	O=C(NCc1ccco1)c1ccc(N2CCOCC2)c([N+](=O)[O-])c1	1%
96	O=C(Cc1c(F)cccc1Cl)Nc1nc2c(s1)CCCC2	1%
97	CCCC(=O)NCCc1ccc(S(N)(=O)=O)cc1	i
98	N#Cc1ccccc1NC(=O)c1sc2cc(Cl)ccc2c1Cl	i
99	CS(=O)(=O)Nc1ccc(C(=O)N2CCC(Cc3ccccc3)CC2)cc1	i
100	COc1ccc(-c2csc(C)n2)cc1Br	i
101	Cn1cccc1/C=C1/C(=O)NC(=O)N(C2CCCCC2)C1=O	20%
102	CCC(CC)C(=O)Nc1nc(-c2ccccc2)c(-c2ccccc2)o1	i
103	CC(=O)c1cccc(NS(C)(=O)=O)c1	i
104	O=C(CC1(O)C(=O)N(Cc2ccccc2Cl)c2ccccc21)c1cc2ccccc2oc1=O (stereo not given)	i
105	COc1ccccc1CNC(=O)CS(=O)(=O)Cc1ccccc1	2%

The last 7 compounds of the part above are carried over, then new ones follow.
item	structure	Mtb H37Rv
99	CS(=O)(=O)Nc1ccc(C(=O)N2CCC(Cc3ccccc3)CC2)cc1	i
100	COc1ccc(-c2csc(C)n2)cc1Br	i
101	Cn1cccc1/C=C1/C(=O)NC(=O)N(C2CCCCC2)C1=O	20%
102	CCC(CC)C(=O)Nc1nc(-c2ccccc2)c(-c2ccccc2)o1	i
103	CC(=O)c1cccc(NS(C)(=O)=O)c1	i
104	O=C(CC1(O)C(=O)N(Cc2ccccc2Cl)c2ccccc21)c1cc2ccccc2oc1=O (stereo not given)	i
105	COc1ccccc1CNC(=O)CS(=O)(=O)Cc1ccccc1	2%
106	Cc1sc(NC(=O)c2ccccc2F)c(C(=O)O)c1C	i
107	O=C(CCCc1ccccc1)Nc1ccc(F)c(F)c1	i
108	O=C(Nc1ccccc1-c1ccccc1)c1ccccc1	0%
109	CN(C)c1ccc(/C=C2/C(=O)NC(=O)N(CC3CCCO3)C2=O)cc1 (stereo not given)	i
110	CCOc1ccc(Cl)cc1CNc1ccc(F)cc1	i
111	CNS(=O)(=O)c1cc(OCC(N)=O)c(C)cc1Cl	i
112	COc1cc2c3c(c1)-c1c(sn(-c4ccc(Br)cc4)c1=S)C(C)(C)N3C(=O)C2=O	29%
113	O=C(CN1C(=O)c2ccccc2C1=O)N1CCN(c2ccccn2)CC1	0%
114	Cc1c(Cl)cccc1NC(=S)N1CCN(c2cccc(Cl)c2)CC1	i
115	COc1ccc(C(=O)N2CCC(C(=O)Nc3cccc(Cl)c3C)CC2)cc1	i
116	O=C(CSc1nc2ccccc2s1)NC12CC3CC(CC(C3)C1)C2	i
117	Cc1ccc(N2CCN(C(=S)c3ccc(O)cc3)CC2)cc1	i
118	Cc1cc(C)c(NC(=O)CN(C)S(=O)(=O)c2ccccc2)c(C)c1	i
119	CC(C)c1ccccc1OCC(=O)Nc1ccc(S(=O)(=O)Nc2ccccc2)cc1	23%
120	COC(=O)c1ccc(CSc2nc(N)c3c4c(sc3n2)CCC4)cc1	1%
121	O=C(Cc1ccccc1)N1CCC(c2ccccc2)C1 (stereo not given)	i
122	COc1cc(C(=S)N2CCCC2)ccc1OCC(N)=O	i
123	O=c1oc2ccccc2cc1-c1nnc(Nc2cc(C(F)(F)F)ccc2Cl)s1	i
124	CC1=C(C(=O)Nc2ccc(C)cn2)C(c2cccc(Cl)c2Cl)C2=C(CCCC2=O)N1 (stereo not given)	i
125	O=C(Nc1ccc(Cl)cc1)c1ccc2nccnc2c1	i
126	CCc1cccc2ccc(S(=O)(=O)NCc3ccccc3)c(CC)c12	6%
127	Cc1ccc(N2C(=O)CC(Sc3ccccc3C(=O)Nc3ccccc3)C2=O)cc1 (stereo not given)	4.9µg/mL*
128	COCCN1C(=O)C(O)=C(C(=O)c2ccc(C)o2)C1c1ccccc1 (stereo not given)	i
129	N#CCc1nc(-c2ccccc2)cs1	i
130	Cc1c(-c2ccccc2)nc2ccccc2c1C(=O)NC(C)C	i
131	Cn1ncc(Br)c1C(=O)Nc1ccc(Cl)cc1Cl	i
132	CCCOc1ccc(N2CC(C(=O)Nc3ccc(Cl)c(Cl)c3)CC2=O)cc1 (stereo not given)	i
133	O=C(NC(=S)Nc1ccccc1I)C(c1ccccc1)c1ccccc1	i
134	Cc1nn(Cc2ccc(F)cc2)c(C)c1NC(=O)c1cc(-c2ccccc2)on1	i

Grouped by structure: the compounds so far with a tert-butyl group.
item	structure	Mtb H37Rv
5	Cc1cc(C(C)(C)C)ccc1OCCN(C)C	i
25	Cc1cc(C)nc(SCC(=O)NC(C)(C)C)n1	2%
43	COc1ccc(NC(=O)OC(C)(C)C)cc1Cl	i
64	CC(C)(C)NC(=O)CNS(=O)(=O)c1ccccc1	i
